Resorufin fluor: qHTS Assay for Spectroscopic Profiling in Resorufin Spectral Region; Compound fluorescence, resorufin region 547/598 nm, buffer; stronger effect = higher value; max dye-equivalent concentration, M; 59,000 tested, 0.04% active; active = above 10 nM dye equivalent; inconclusive = 1 to 10 nM; inactive = 1 nM or less; a few of its hits are not listed in these tables; note: highest value over a series up to 38 µM
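Intrinsic fluorescence profiled in the resorufin window (ex 547 nm, em 598 nm) after 15 min at room temperature in pH 8.0 Tris buffer (100 mM); responses normalized against a six-point resorufin standard series as dye-equivalent concentration.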
A647 autofl: qHTS Assay for Spectroscopic Profiling in A647 Spectral Region; Compound fluorescence, A647 channel (570/671 nm), Tris buffer; max dye-equivalent concentration, M; 59,000 tested, under 10 active; active means above 1 µM dye equivalent; inconclusive means 0.1 to 1 µM; inactive means 0.1 µM or less;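 note: values scaled relative to a standard on each plate; highest value over a series up to 38 µM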
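Tris 100 mM pH 8.0; cpd + A647 stds pin-transferred; 15 min RT; CCD imager, ex 570/em 671. Output = A647-equivalent conc. per cpd conc.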
AID923: qHTS Assay for Allosteric/Competitive Inhibitors of Caspase-1: Spectroscopic Profiling in AFC Spectral Region | compound fluorescence, AFC spectral region (405/520 nm); almost no hit is shown here | Potency, µM (highest dose often 57.5 µM), for the others: at the highest dose fluorescence increase, hits mostly activators | 75,000 tested, 1.1% active | AID 923, 2007; active = well fitted activation curve with a large enough effect; inconclusive = small, poorly fitted or top-dose-only effect;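 note: potency is the fitted concentration of half-maximal effect; 0% is about no effect; scaled to a free AFC standard on each plate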
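Baseline compound fluorescence (AFC region, 405 nm ex/520 nm em) taken from the intercept of kinetic reads with 50 nM caspase-1 and 5 uM Ac-WEHD-AFC; normalized to an on-plate AFC standard curve; compounds titrated up to 57 uM.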
TSHR agonist: qHTS Assay for Agonists of the Thyroid Stimulating Hormone Receptor; Thyrotropin receptor (Homo sapiens), P16473; Potency, µM (highest dose often 57.1 µM), without a hit: at the highest dose activation, most hits filed as activators; 73,000 tested, 0.48% active; HEK293-CNG-TSHR cells (CNG channel as cAMP sensor), membrane potential dye, cAMP; active = well fitted activation curve of enough size with the parental cells flat; inconclusive = any curve in the parental cells; inactive = parental cells flat and receptor cells flat or falling; note: potency is the fitted concentration of half-maximal effect; % of control where 0% means no effect; weak receptor curves with flat parental cells got no call and are not listed
Target sequence (P16473 whole entry, looked up): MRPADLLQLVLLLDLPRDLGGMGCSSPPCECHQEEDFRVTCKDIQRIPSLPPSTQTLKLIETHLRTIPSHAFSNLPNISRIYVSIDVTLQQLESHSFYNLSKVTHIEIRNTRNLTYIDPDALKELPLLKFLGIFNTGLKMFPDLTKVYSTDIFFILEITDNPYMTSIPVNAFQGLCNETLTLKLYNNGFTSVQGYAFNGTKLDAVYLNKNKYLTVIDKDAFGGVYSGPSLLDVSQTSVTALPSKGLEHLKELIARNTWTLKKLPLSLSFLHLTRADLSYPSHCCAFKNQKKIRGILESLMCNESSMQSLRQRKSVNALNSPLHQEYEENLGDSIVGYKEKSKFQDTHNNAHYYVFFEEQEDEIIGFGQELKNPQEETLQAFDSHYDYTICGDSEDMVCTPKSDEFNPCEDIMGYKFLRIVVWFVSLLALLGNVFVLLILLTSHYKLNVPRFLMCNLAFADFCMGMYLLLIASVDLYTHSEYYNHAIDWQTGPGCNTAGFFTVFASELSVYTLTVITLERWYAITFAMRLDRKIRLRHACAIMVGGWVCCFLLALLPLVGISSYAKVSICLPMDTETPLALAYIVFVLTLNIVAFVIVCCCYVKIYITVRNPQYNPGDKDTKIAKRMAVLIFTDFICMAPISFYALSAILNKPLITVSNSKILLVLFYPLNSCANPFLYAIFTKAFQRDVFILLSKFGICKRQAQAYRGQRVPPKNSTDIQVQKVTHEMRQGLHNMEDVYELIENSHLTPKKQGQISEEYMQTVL
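HEK 293 cells stably expressing TSHR and a cAMP-gated CNG channel; parental CNG-only cells as counterscreen. Cells preloaded 60 min with membrane potential dye plus 100 uM RO 20-1724, then compound 30 min; fluorescence read at 590 nm.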
A488 fluor: qHTS Assay for Spectroscopic Profiling in A488 Spectral Region; compound autofluorescence, A488 spectral region, dye equivalency; stronger effect = higher value; max dye equivalency, M; 59,000 tested, 0.1% active; AID 591, 2007; active = above 10 nM dye equivalent; inconclusive = 1 to 10 nM; inactive = 1 nM or less; about half of its hits are not listed in these tables;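 note: highest value over a series up to 38 µM; compound alone in buffer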
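Readout is A488 dye-equivalent concentration, calibrated by a per-plate six-point Alexa 488 series. Compounds in 100 mM Tris buffer pH 8.0 were incubated 15 min at room temperature. Plates were imaged using 480 nm excitation/540 nm emission filters.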
Numbers without * were called inactive; i = inactive; ? = inconclusive; . = not tested or not shown; [ ] = dose if it differs, or a comment. Only part of the results is shown (hit frequency here may not be typical).

Results follow in this order: Resorufin fluor	A647 autofl	AID923	TSHR agonist	A488 fluor
- CCN(CCCNC(=O)C1CCN(S(=O)(=O)c2cnc[nH]2)CC1)c1ccccc1
 : i	1.4e-08	0.8%	4%	i
- COC(=O)c1cc(S(=O)(=O)N2CCC(C)CC2)ccc1F
 : i	1e-09	0.8%	?	i
- CCOC(=O)c1ccc(NC2c3ncccc3C(=O)N2Cc2ccc(F)cc2)cc1 (stereo not drawn)
 : i	1e-08	-1.5%	.	i
- c1ccc2[nH]c(SN3CCOCC3)nc2c1
 : i	1e-09	-5.0%	-3%	i
- O=C(O)COc1ccc2c(c1)OCCO2
 : .	.	0.6%	15%	.
- CS(=O)(=O)N1CCc2cc(S(=O)(=O)Nc3ccc4c(c3)OCCO4)ccc21
 : i	3.4e-09	-1.7%	22%	i
- CCC(CC)C(=O)Nc1cccc(C(=O)N2CCOCC2)c1
 : i	1.4e-08	-0.7%	-6%	i
- COC(=O)c1cc(=O)nc2scc(C)n12
 : .	.	0.1%	-3%	.
- CCOC(=O)C1Cc2cc3c(cc2C1=O)CC(C(=O)OCC)C3=O (stereo not drawn)
 : i	3.2e-08	3.9%	-5%	i
- CCOC(=O)N1CCC(NC(=O)C2CCN(S(=O)(=O)c3c(C)noc3C)CC2)CC1
 : i	5.3e-09	0.7%	4%	i
- CC(C(=O)N1CCN(C)CC1)N1C(=O)c2ccccc2C1=O (stereo not drawn)
 : i	1.9e-08	-3.0%	1%	i
- Cc1c(Cl)cccc1N1CC(C(=O)Nc2nccs2)CC1=O (stereo not drawn)
 : .	.	-0.8%	-2%	.
- COCCCNC(CC(=O)Nc1ccccc1C(=O)OC)C(=O)O (stereo not drawn)
 : i	6.5e-09	-0.6%	5%	i
- CC(c1ccccc1)n1cc(C(=O)NCCN2CCOCC2)nn1 (stereo not drawn)
 : i	2.1e-08	-0.1%	7%	i
- N#Cc1ccsc1NC(=O)COc1ccc(-c2nnco2)cc1
 : i	4.9e-09	-0.3%	-5%	i
- CCCCSc1nc(O)c(C2OC(=O)c3c2ccc(OC)c3OC)c(=O)n1C (stereo not drawn)
 : i	7.5e-08	.	.	i
- O=C(c1ccc(COc2ccc(F)cc2)o1)n1cccn1
 : i	1.7e-08	0.1%	-1%	i
- COc1ccc(-c2cn3c(C)c(C(=O)Nc4cccc(NC(C)=O)c4)sc3n2)cc1
 : i	1.1e-08	3.0%	13%	i
- CCOC(=O)c1ccc(NC(=O)CCc2nc(-c3cccc(C)c3)no2)cc1
 : i	1e-09	1.2%	-7%[11.4 µM]	i
- CCOc1ccc(N(CC(=O)Nc2ccccc2)S(C)(=O)=O)cc1
 : .	.	1.1%	-3%	.
- CCNC(=O)[C@@H]1O[C@@H](n2cnc3c(NCc4ccccc4)ncnc32)[C@@H](O)[C@H]1O
 : i	4.6e-09	.	?	i
- COCCSc1ccccc1C(=O)NCc1ccco1
 : i	3e-09	-0.8%	1%	i
- CC(=O)c1ccc(-n2nnnc2SCC(=O)N2CCc3ccccc3C2)cc1
 : i	1e-09	1.6%	14%	i
- Cc1ccc(C)c(NS(=O)(=O)c2cc(C(=O)O)ccc2Cl)c1
 : .	.	-0.2%	5%	.
- O=C(c1cccnc1NCc1ccc(F)cc1)N1CCOCC1
 : i	1.7e-09	0.8%	-1%	i
- COc1cc(OC)cc(-c2nnc(SCC(=O)Nc3cc(C)on3)o2)c1
 : i	4.6e-08	-1.8%	-3%	i
- CN1CCN(c2ccccc2NC(=O)c2ccc(OCc3ccccc3)cc2)CC1
 : i	6.7e-09	0.6%	-29%	i
- COc1ccccc1NC(=O)c1ccc(S(=O)(=O)N2CCOCC2)cc1
 : i	2.3e-08	-0.5%	-4%	i
- O=S(=O)(c1cccc2nsnc12)N1CCN(C/C=C/c2ccccc2)CC1
 : i	1.7e-09	.	.	i
- O=C(O)c1cc(S(=O)(=O)NCc2ccco2)c(Cl)cc1Cl
 : .	.	5.0%	?	.
- CC(C)n1c(SCC(=O)c2ccc3c(c2)OCCO3)nc2c1c(=O)n(C)c(=O)n2C
 : i	4.5e-09	-0.6%	15%	i
- CCc1ccc(-c2nc(CN3CCC(C(=O)NCCN(CC)c4ccccc4)CC3)c(C)o2)cc1
 : i	3.9e-08	1.0%	-11%	i
- COc1ccc(C)cc1NC(=O)C1CCCN(S(=O)(=O)c2cnc[nH]2)C1 (stereo not drawn)
 : .	.	2.1%	2%	.
- COc1cccc(NC(=O)C2CCCN2C(=O)OCc2ccccc2)c1 (stereo not drawn)
 : i	1e-09	-1.7%	6%[11.4 µM]	i
- Cc1ccc(S(=O)(=O)N2CCC(C(=O)N3CCC(C(=O)NCc4cccnc4)CC3)CC2)cc1
 : i	2.7e-09	1.7%	2%	i
- CCSC1=C(C#N)C(c2ccc(Cl)cc2)C2=C(CCCC2=O)N1 (stereo not drawn)
 : i	2.2e-08	5.9%	?	i
- O=C(O)c1nn2c(c1Br)NC(c1ccccc1)CC2C(F)(F)F (stereo not drawn)
 : .	.	0.6%	1%	.
- CC(CCN)(CCN)[N+](=O)[O-]
 : i	2.1e-08	-1.3%[11.5 µM]	6%[11.4 µM]	i
- COc1nc(-c2ccc(C)cc2)ccc1-c1noc(-c2ccco2)n1
 : i	1e-09	11%	-5%[11.4 µM]	i
- CCOC(=O)c1[nH]nc(C(=O)c2ccc(Br)cc2)c1O
 : i	1.7e-08	0.8%	-4%[11.4 µM]	i
- CCN(CC)S(=O)(=O)c1ccc2c(c1)nc(SCC(=O)NC1CC1)n2-c1ccccc1OC
 : i	2.2e-08	-6.9%	8%	i
- Cc1ccc(C2C(C(=O)c3sc(C)nc3C)=C(O)C(=O)N2CCN2CCOCC2)o1 (stereo not drawn)
 : i	3.4e-08	2.2%	-1%	i
- Cc1cccc(C(C)(C)C)c1OCCn1ccnc1
 : i	1.1e-09	-0.3%	4%	i
- CCn1c(COc2cccc(OC)c2)nnc1SCC(=O)Nc1cc(OC)ccc1OC
 : i	1e-09	5.5%	?	i
- CCOC(=O)CSCc1c(C#N)c2ccccc2n1C
 : i	6.7e-09	-0.1%	26%	i
- COc1ccccc1NC(=O)CC1Nc2ccccc2NC1=O (stereo not drawn)
 : i	4.7e-09	-1.9%	?	i
- CC1Oc2ccccc2N(CC(=O)Nc2ccc3c(c2)OCO3)C1=O (stereo not drawn)
 : i	5.8e-09	0.9%	?	i
- Cc1cccc(N2CN=c3s/c(=C\c4ccncc4)c(=O)n3C2)c1
 : i	1e-09	.	.	i
- O=C1CCCC=C1[C@@H](O)CCOC(c1ccccc1)(c1ccccc1)c1ccccc1
 : .	.	11%[11.5 µM]	?	.
- CCCCNC(=O)c1ccc(Cc2nc3ccccc3[nH]2)cc1
 : .	.	0.8%	-8%	.

Remaining list, next part
Results follow in this order: Resorufin fluor	A647 autofl	AID923	TSHR agonist	A488 fluor
- CCCc1nc(Nc2nc3ccccc3o2)nc(C)c1C(=O)OCC
 : i	6.1e-09	-1.7%	19%	i
- Cc1ccc(NC(=O)CSc2nnc(-c3cnccn3)n2Cc2ccco2)cc1
 : i	1e-09	2.5%	10%	i
- O=C(NC1CCCCC1)C(c1ccncc1)N(C(=O)Cn1nnc(-c2cccs2)n1)C1CCCC1 (stereo not drawn)
 : i	5.2e-09	1.7%	?	i
- COc1ccc(C(=O)N(CN2CCCC2=O)c2cc(C)on2)cc1OC
 : i	1e-09	2.0%	15%	i
- O=C(CN1CCOCC1)Nc1ccccc1-c1ccccc1
 : i	5.9e-09	-1.0%	4%	i
- Cc1cnc(C(=O)OCC(=O)Nc2ccc(Cl)cc2Cl)cn1
 : i	1e-09	1.4%	?	i
- COc1ccc(NC(=O)C2OCCc3ccccc32)c(OC)c1 (stereo not drawn)
 : i	4.3e-08	1.1%	.	i
- CN1CCN(c2ccc3nc(-c4ccc5nc(-c6ccc(O)cc6)[nH]c5c4)[nH]c3c2)CC1
 : i	1e-09	1.0%[11.5 µM]	3%[11.4 µM]	i
- CCOC(=O)C1=NO[C@@]2(C=C(Br)C3(OCCCO3)[C@H]3O[C@H]32)C1
 : .	.	5.1%[11.5 µM]	-5%[11.4 µM]	.
- COC(=O)NC(c1ccco1)C(C(C)=O)C(=O)OC (stereo not drawn)
 : .	.	1.3%[11.5 µM]	15%[11.4 µM]	.
- Cc1nc(C)c(-c2ccccc2)c(=O)[nH]1
 : i	1e-09	0.1%	6%	i
- COc1cc(C2C(C(=O)OC(C)C)=C(C)Nc3[nH]c(=O)[nH]c(=O)c32)ccc1O (stereo not drawn)
 : i	1.7e-08	-1.3%	3%	i
- CC1CCCC(C)N1C(=O)c1cc(-c2cccs2)on1 (stereo not drawn)
 : i	3.7e-08	0.5%	20µM*	i
- O=C(C1CCC1)N1CCc2cc(S(=O)(=O)NC3CCCC3)ccc21
 : i	1.6e-08	-0.8%	9%	i
- CCCCCn1c(CNC(C)=O)nc2ccccc21
 : i	1e-09	-0.4%	-4%[11.4 µM]	i
- CCN(CCCn1c(SCC#N)nc2ccccc2c1=O)c1ccccc1
 : i	1e-09	0.9%	?	i
- Cn1c(=O)[nH]c(=O)c2c1nc(Sc1ncccn1)n2CCCc1ccccc1
 : i	1.8e-09	1.7%	3%	i
- O=C(Cc1cccs1)NCC1CCCO1 (stereo not drawn)
 : i	2.6e-08	-0.8%	2%	i
- Cc1cc(C)c(N2CCN(S(=O)(=O)N3CCCCCC3)CC2)c(C)c1
 : i	1.2e-08	1.8%	-1%	i
- CC1=CCC2C(=O)N(c3ccc4ccccc4n3)C(=O)C2C1 (stereo not drawn)
 : i	3.7e-09	0.5%	15%	i

5 neighbouring compounds out of the list so far:
Results follow in this order: Resorufin fluor	A647 autofl	AID923	TSHR agonist	A488 fluor
- CCN(CCCNC(=O)C1CCN(S(=O)(=O)c2cnc[nH]2)CC1)c1ccccc1
 : i	1.4e-08	0.8%	4%	i
- COC(=O)c1cc(S(=O)(=O)N2CCC(C)CC2)ccc1F
 : i	1e-09	0.8%	?	i
- CCOC(=O)c1ccc(NC2c3ncccc3C(=O)N2Cc2ccc(F)cc2)cc1 (stereo not drawn)
 : i	1e-08	-1.5%	.	i
- c1ccc2[nH]c(SN3CCOCC3)nc2c1
 : i	1e-09	-5.0%	-3%	i
- O=C(O)COc1ccc2c(c1)OCCO2
 : .	.	0.6%	15%	.

(next part)
Results follow in this order: Resorufin fluor	A647 autofl	AID923	TSHR agonist	A488 fluor
- Cc1ccc(C)c2[nH]c(=O)c(CN(Cc3ccco3)S(=O)(=O)c3ccc4c(c3)OCCO4)cc12
 : i	2.7e-08	0.9%	21%	i
- NC(=O)/N=C(\N)NC(=O)c1ccccc1
 : i	1e-09	-0.5%[11.5 µM]	-4%[11.4 µM]	i
- Cc1ccc(-c2ccc(=O)n(CC(=O)NCCN3CCCCC3C)n2)cc1 (stereo not drawn)
 : i	3.2e-08	-0.3%	.	i
- COc1ccc(C(=O)C2CCCCC2=O)cc1 (stereo not drawn)
 : i	1e-09	.	.	i
- CCN(CC)S(=O)(=O)c1cccc(C(=O)Nc2ccccc2)c1
 : i	9.8e-09	-0.6%	?	i
- CCOC(=O)c1cccc(NC(=O)CN(C)S(=O)(=O)c2cnc[nH]2)c1
 : i	1.6e-08	-0.4%	.	i
- Cc1cc(C)n(CC2CC(=O)N(c3ccc(Cl)c(Cl)c3)C2=O)n1 (stereo not drawn)
 : i	3e-09	.	.	i
- Cc1cc(C)nc(-n2nc(C)cc2NC(=O)CN2CCc3ccccc3C2)n1
 : i	2.9e-08	-0.8%	?	i
- Cc1ccc(N2CC(C(=O)Nc3nccs3)CC2=O)cc1 (stereo not drawn)
 : i	4.5e-08	-0.1%	9%	i
- Cc1onc(-c2ccccc2)c1C(=O)Nc1cccnc1
 : i	1.1e-08	-1.1%	3%	i
